High-throughput results: PubChem, several laboratories
CSC inhib – cancer stem cell inhibition; cancer stem cell-like cells viability, luminescence; inhibition, % at 7.5 µM; actives 1.1% (n = 300,000);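 active = mean at 75% or more and at least half the replicates too; inconclusive = mean and replicates disagree; tested in HMLE shEcad cells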;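 note: 0% = median of negative and 100% = median of positive control wells; the first replicate is given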
Env fusion inh – inhibitors of HIV Env-mediated cell fusion; HeLa-JRFL Env/CEM21 cell fusion, luciferase; inhibition, % at 12.3 µM; actives 1.1% (n = 360,000); AID 651610;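 active = mean replicate inhibition score of at least 50 and every replicate individually at or above 50; inconclusive = only one of the two criteria met; inactive = mean below 50 and not all replicates reaching 50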;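 note: 0% = plate neutral controls and 100% = maraviroc near 300 nM; one replicate is shown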
UUG fidelity – modulators of start codon recognition fidelity in yeast; S. cerevisiae UUG-firefly luciferase reporter, luminescence/redox ratio; activity score, % at 18.7 µM; actives 0.13% (n = 350,000); AID 602363;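 active = replicate mean at a twofold rise or more, about +100% in these data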;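 note: firefly luciferase made from a UUG start codon reports start codon fidelity; reporter light over untreated wells divided by growth signal over untreated wells; some hits fall short of that in this replicate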
PABP polyA inh – blocks human PABP binding to poly(A) RNA. AID 2014. inhibition, % at 35 µM. fluorescence polarization. P11940. actives 1% (n = 290,000);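 active = 50% or more with normal probe brightness, or confirmed in later tests; inconclusive = above 50% with abnormal brightness, or retests that disagree; inactive = below 50% or failed in later tests; about a fifth of its hits are not listed in these tables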;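 note: calls also rest on retests at 20 µM and on dose response follow-up; controls were probe without protein and protein plus probe with vehicle; some compounds called inactive have numbers as strong as hits; many hits fall short of the cut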
Target sequence (P11940 whole entry, looked up): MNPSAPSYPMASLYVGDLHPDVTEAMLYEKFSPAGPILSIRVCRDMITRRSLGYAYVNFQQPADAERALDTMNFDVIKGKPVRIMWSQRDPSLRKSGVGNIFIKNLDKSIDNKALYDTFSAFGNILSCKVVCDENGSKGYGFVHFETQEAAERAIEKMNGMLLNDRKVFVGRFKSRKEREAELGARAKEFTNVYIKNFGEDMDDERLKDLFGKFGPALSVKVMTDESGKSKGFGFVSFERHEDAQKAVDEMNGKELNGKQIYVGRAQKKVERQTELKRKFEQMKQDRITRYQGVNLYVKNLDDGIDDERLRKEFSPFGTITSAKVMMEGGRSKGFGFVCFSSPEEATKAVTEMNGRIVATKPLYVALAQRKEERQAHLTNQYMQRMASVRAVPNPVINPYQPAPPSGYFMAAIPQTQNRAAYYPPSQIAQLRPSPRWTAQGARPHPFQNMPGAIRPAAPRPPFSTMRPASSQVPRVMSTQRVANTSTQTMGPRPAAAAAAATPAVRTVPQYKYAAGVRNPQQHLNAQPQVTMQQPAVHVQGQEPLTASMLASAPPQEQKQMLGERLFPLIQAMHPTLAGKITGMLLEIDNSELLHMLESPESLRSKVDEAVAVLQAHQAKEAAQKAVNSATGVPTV
Rce1 inh – yeast Ras-converting enzyme inhibition | AID 2563 | yeast membranes, quenched prenylated peptide cleavage fluorescence | calls only | Q03530 | actives 0.27% (n = 290,000);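 active = fall in fluorescence gain of 50% or more versus controls, with final raw signal at or below 3038400; inconclusive = same 50% fall but final raw signal above 3038400; inactive = fall in fluorescence gain under 50%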;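 note: plate controls were neutral control wells for no effect and wells lacking membranes for full effect; tested at 10 µM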
Target sequence (Q03530 whole entry, looked up): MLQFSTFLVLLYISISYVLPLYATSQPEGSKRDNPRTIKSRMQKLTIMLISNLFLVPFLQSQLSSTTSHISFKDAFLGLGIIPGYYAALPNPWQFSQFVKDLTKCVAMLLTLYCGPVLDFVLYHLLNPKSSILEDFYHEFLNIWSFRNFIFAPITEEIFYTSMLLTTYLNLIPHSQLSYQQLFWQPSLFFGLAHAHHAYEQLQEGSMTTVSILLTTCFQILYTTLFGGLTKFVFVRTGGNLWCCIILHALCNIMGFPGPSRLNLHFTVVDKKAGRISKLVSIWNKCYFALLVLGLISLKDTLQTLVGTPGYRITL
MT1-MMP act inh – blocks activation of human MT1-MMP. actives 0.061% (n = 360,000). GFP/RFP ratio change, % at 20 µM. HT1080 RFP-PRO-GFP cells, GFP/RFP ratio fluorescence, overnight; percent of plate control window, DMSO zero;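 active = GFP/RFP ratio change of at least 30% with cell ATP level not reduced by more than half and red fluorescence within 50% of control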; note: strong numbers were not always called active
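Assay system: HT1080 cells carrying an RFP-PRO-GFP reporter | Dosing: Single dose of 20 µM compound, 1% DMSO final | Incubation: Cells overnight before dosing, compound overnight, 37 °C, 5% CO2 | Evaluation: GFP/RFP fluorescence ratio | Control set: DMSO and RFP-L50D-GFP cell wells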
eIF4H FP inh – inhibitors of RNA binding by human eIF4H; AID 2012; actives 0.94% (n = 290,000); eIF4H fluorescence polarization binding assay; Q15056; inhibition, % at 35 µM;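 active = 50% or more with normal probe brightness, or confirmed in later tests; inconclusive = above 50% with abnormal brightness, or retests that disagree; inactive = below 50% or failed in later tests; about a fifth of its hits are not listed in these tables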;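 note: calls also rest on retests at 20 µM and on dose response follow-up; 0% = protein and probe with vehicle and 100% = probe without protein; strong numbers were not always called active; many hits fall short of the cut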
MT1-MMP act inh RFP – second read-out of MT1-MMP act inh, no call of its own (marks repeat the call); RFP signal change, %; measured here: RFP expression control read;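 0 = vehicle wells; hits needed this value within 50% of zero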
Starred values were filed as active, the others as inactive; i = inactive; ? = inconclusive; / = no result given; & = joins results of further samples; [ ] = another dose, or the depositor's remark. An excerpt. The share of hits here may be higher or lower than overall.

SMILES | CSC inhib | Env fusion inh | UUG fidelity | PABP polyA inh | Rce1 inh | MT1-MMP act inh | MT1-MMP act inh RFP | eIF4H FP inh
Cc1ccc(S(=O)(=O)Nc2nc3c(s2)C(=O)CC(C)(C)C3)cc1 | -16 | 10 | / | 9 | i | 0 | 1 | -18
O=C(Nc1nc2ccccc2s1)C1CCCO1 (configuration not stated) | -5 | -106 | -14 | 5 | i | 1 | 4 | -8
COc1ccc(C(=O)Oc2cc(OC)cc(OC)c2C(C)=O)cc1 | -2 | -9 | -2 | -6 | i | -2 | -3 | 2
Cc1ccc(NC(=O)CS(=O)(=O)c2cn(CC(=O)N3CCOCC3)c3ccccc23)cc1 | 5 | -10 | -1 | -10 | i | -3 | -6 | -2
C#CCOc1ccccc1/C=C1/C(=O)ON=C1C | / | 0 | -17 | -13 | i | -13 | 2 | -20
O=C(NCCc1c[nH]c2ccccc12)C(=O)c1c[nH]c2ccccc12 | 112* | -14 | -17 | 0 | i | -2 | 0 | -18
Cc1ccc(-n2c(=O)cc(N3CCc4ccccc4C3)[nH]c2=O)cc1 | -13 | / | -10 | 4 | / | -5 | 3 | 3
COc1ccc(OC)c(/C=C/C(=O)Nc2ccc(OC)nc2)c1 | 24 | -15 | / | 16 | i | 3 | 6 | -2
COc1ccc(/C=C/C(=O)OCC(=O)NC2CC2)c(OC)c1 | -6 | 4 | -4 | / | / | 1 | 6 | /
CCCOc1ccc(C2Nc3cccc4cccc(c34)N2)cc1 | -9 | 1 | -6 | 13 | i | 1 | 8 | 35
Cc1ccc(C)c(NS(=O)(=O)c2cc(C(=O)NCc3ccncc3)ccc2C)c1 | 3 | 14 | -17 | 2 | i | 2 | -1 | -2
C/C(CC(=O)Nc1ccc(C)c(Cl)c1)=N\NC(=O)c1cccc(O)c1 | -11 | -9 | -21 | 7 | i | 1 | 2 | -3
Cc1nc2ccccc2c(=O)n1Cc1ccco1 | 6 | 5 | -8 | -4 | i | 4 | 2 | -5
O=C1COc2ccccc2N1Cc1ccc(Cl)cc1 | 3 | 25 | 167* | -2 | i | -3 | -4 | 1
CCn1cc(C(=O)N2CCN(c3cccc(C)c3C)CC2)c(=O)c2ccc(C)nc21 | -8 | 29 | 17 | 9 | i | 6 | -2 | -4
CN(CCOc1ccc(Cl)cc1)C(=O)C1CCN(C(=O)c2ccc(F)cc2)CC1 | -4 | -2 | -1 | -7 | i | 4 | -6 | 0
COC(=O)C1=CN(Cc2ccc(OC)c(OC)c2)C=C(C(=O)OC)C1c1cccs1 | / | -9 | / | -1 | i | -5 | -5 | 18
OC1(c2cccc(C(F)(F)F)c2)CCN(CCN2CCCCC2)CC1 | 29 | 3 | -14 | -1 | i | 5 | 7 | -9
O=C(CSc1nnc(CNC(=O)c2ccccc2F)o1)NCc1ccco1 | -4 | -5 | -13 | 3 | i | 4 | 2 | 14
O=C(OCC1CC(c2ccccc2)=NO1)c1ccco1 (configuration not stated) | -7 | -3 | / | 8 | i | 2 | 4 | -12

Next part; the last three above are carried over.
SMILES | CSC inhib | Env fusion inh | UUG fidelity | PABP polyA inh | Rce1 inh | MT1-MMP act inh | MT1-MMP act inh RFP | eIF4H FP inh
OC1(c2cccc(C(F)(F)F)c2)CCN(CCN2CCCCC2)CC1 | 29 | 3 | -14 | -1 | i | 5 | 7 | -9
O=C(CSc1nnc(CNC(=O)c2ccccc2F)o1)NCc1ccco1 | -4 | -5 | -13 | 3 | i | 4 | 2 | 14
O=C(OCC1CC(c2ccccc2)=NO1)c1ccco1 (configuration not stated) | -7 | -3 | / | 8 | i | 2 | 4 | -12
CC(=O)NC(c1cccc(F)c1)c1nc(-c2cccc(F)c2)cs1 (configuration not stated) | / | -13 | -13 | / | / | -1 | 0 | /
Cc1ccccc1N=Nc1ccc(O)c2ncccc12 | 99* | 32 | -12 | -2 | i | 0 | -19 | 26
CN(C(=O)COC(=O)c1ccc(NS(=O)(=O)c2cccs2)cc1)C1CCCCC1 | -8 | i | -47 | -2 | i | 7 | 3 | 6
Cc1csc(NC(=O)CSc2nnc(-c3cccs3)n2C)n1 | -8 | -105 | -12 | -4 | i | 6 | 0 | -8
COC(=O)c1c(C)[nH]c(C(=O)CSc2ccc(Cl)cc2)c1C | -5 | / | -15 | 1 | i | 1 | -10 | -1
CC(C)(C)N1CCC1C(N)=O (configuration not stated) | 3 | / | / | 8 | i | / | / | -2
Cn1nnnc1Sc1ncnc2scc(-c3ccccc3Br)c12 | 52 | -5 | -4 | / | / | -2 | -4 | /
CCOC(=O)Nc1ccc2nc3n(c(=O)c2c1)CCCCC3 | 16 | -13 | / | 0 | i | 1 | 0 | 4
Cc1nn(-c2ccccc2)c(N2CCCC2)c1/C=N/NC(=O)c1cc(-c2ccccn2)nc2ccccc12 | 10 | / | / | 0 | i | -13 | -10 | -10
C=CCN1C(=O)CS/C1=N\N=C\c1cccc([N+](=O)[O-])c1 | 0 | -6 | / | 9 | i | 2 | 2 | -6
Cc1ccc(OCC(O)CN2CCN(CC(O)COc3ccc(C)cc3Cl)CC2)c(Cl)c1 (configuration not stated) | 19 | / | -9 | -5 | i | -3 | -7 | -7
Nc1nonc1C(=O)N1CCCC1 | -18 | 1 | -17 | -6 | i | -11 | 0 | -4
COc1ccccc1CCNC(=O)NC1CCCCC1 | 2 | -9 | -11 | -5 | i | 2 | 7 | -9
COc1ccc(NC(=O)CCCN2C(=O)C(c3ccccc3)Oc3cccnc32)c(OC)c1 (configuration not stated) | -8 | 5 | / | 3 | i | 3 | 4 | -2
COc1ccc(CN2C(=O)CN(C3CCCCCC3)C(=O)C2c2ccc(OC)c(OC)c2)cc1 (configuration not stated) | / | 22 | 25 | 0 | i | 1 | 2 | 1
Cc1ccccc1-n1nc(C)c2cc(C(=O)NC3CC3)sc21 | 6 | 49 | -6 | 10 | i | -2 | -1 | 3
CCO[C@H]1OC(C(=O)N2CCN(C)CC2)=C[C@@H](c2coc3ccccc3c2=O)[C@@H]1CCCO | -15 | 29 | -4 | 5 | i | 3 | 3 | 1
CN1C(=O)/C(=C\c2ccc(N(C)C)cc2)OC1=S | -8 | -12 | -28 | ? | i | -124 | 7 | ?
Cc1cccc(-c2csc(N)c2C(=O)OC(C)C)c1 | 2 | -21 | -14 | 0 | i | 6 | 0 | 3
Cc1ccc(-c2cc(Cc3ccncc3)c(=O)[nH]n2)cc1 | -3 | -16 | -10 | 11 | i | 1 | -2 | 2
Cc1csc(NC(=O)c2c(O)c3c(n(CC(C)C)c2=O)CCCC3)n1 | 18 | / | / | 9 | i | 0 | -6 | -12
CC(=O)NC(C)C(=O)OCC(=O)c1ccc(-c2ccccc2)cc1 (configuration not stated) | -5 | -7 | -12 | -6 | i | 2 | 4 | -2
COc1ccc(CNC(=O)C(OC(=O)c2nsc(Cl)c2Cl)C(C)C)cc1 (configuration not stated) | -1 | -6 | 0 | -4 | i | 3 | 5 | -2
COCCNC(=O)c1cccc(OC2CCN(Cc3ccc(OC(F)F)cc3)CC2)c1 | -7 | -3 | 0 | -10 | i | 7 | -11 | 0
Cc1ccccc1-n1nc2c(c1NC(=O)c1cc3ccccc3oc1=O)CS(=O)C2 (configuration not stated) | -13 | / | -9 | 1 | i | -12 | -6 | -7
O=C(/C=C/c1cccs1)c1cc(F)ccc1OC(=O)N1CCOCC1 | 4 | -24 | -4 | / | i | 0 | 1 | /
COc1ccc(N2CCc3c(C)nc4c(OC)cc(OC)cc4c32)c(OC)c1 | 12 | 22 | -7 | -6 | i | -5 | -8 | -7
CCOC(=O)C1CCCCN1Cc1cccc(C(F)(F)F)c1 (configuration not stated) | -16 | / | / | 9 | i | -1 | 3 | 3
COc1cc2c(cc1NC(=O)COCC(=O)O)oc1ccccc12 | -1 | 0 | -6 | 0 | i | 5 | 0 | -10
CCOc1ccc(-c2noc(CCCC(=O)NC3CCCC3)n2)cc1OC | / | 5 | 3 | -2 | i | 2 | -1 | 4
O=C(CN1C(=O)NC2(CCCC2)C1=O)Nc1ccc(Cl)cc1F | -7 | -4 | 5 | 2 | i | -1 | 2 | 1
C/C(=N\NC(=O)c1ccc(O)cc1)c1ccc2c(c1)Nc1ccccc1S2 | 72 | -9 | -10 | -3 | / | 2 | -7 | 3
O=C(CCCN1C(=O)c2ccccc2C1=O)NCc1ccco1 | -8 | / | -2 | 14 | i | 0 | 0 | -10
O=C(CCn1c2c(c3ccccc31)CCCC2)NNC(=O)c1ccccc1C(=O)O | 12 | / | -20 | 8 | i | -6 | -1 | -2
COC(=O)c1sccc1N(C)S(C)(=O)=O | / | 10 | -17 | 3 | i | 1 | 3 | 1
Cc1ccc(S(=O)(=O)N2CCC(C(=O)N/N=C/c3ccccc3[N+](=O)[O-])CC2)cc1 | -4 | -14 | / | 2 | i | 2 | 0 | -16
Cc1nc(Nc2ccc(F)cc2)[nH]c(=O)c1CCC(C)C | 10 | -87 | -1 | 15 | i | 1 | -5 | 0
O=S(=O)(NCC1CCCO1)c1cc(Br)c(Br)s1 (configuration not stated) | 24 | / | 0 | -2 | i | -2 | 0 | -1
CNC(=O)c1cc(C(=O)c2ccc(F)cc2Cl)c[nH]1 | -12 | -13 | -18 | -4 | i | 0 | -4 | -3
Fc1cccc(Cc2noc(CN3CCN(C4CCc5ccccc5C4)CC3)n2)c1 (configuration not stated) | 21 | -18 | / | -3 | i | -1 | -3 | -2
Cc1nc(/N=C(\N)NC(=O)NC2CCCCC2)nc2ccccc12 | 58 | -43 | 15 | -12 | i | -7 | -19 | -2
COc1cc2c(cc1OC)C(C(C)C)=NC(C)(C)C2 | -12 | / | -7 | 24 | / | 2 | 2 | -6
Cc1ccc(/C=N/N(C)C2=NS(=O)(=O)c3ccccc32)cc1 | -1 | 6 | -8 | 7 | i | -4 | 0 | -2
OC(c1ccc(Cl)c(F)c1)c1ncc(-c2cccc(C(F)(F)F)c2)[nH]1 (configuration not stated) | / | 28 | -19 | / | / | 4 | -3 | /
Cc1cc(N2CCOCC2)nc(SCc2ccc(Cl)cc2Cl)n1 | 21 | / | -16 | 5 | i | 0 | -2 | -4
Cc1nn(-c2ccccc2)c(C)c1/C=N/NC(=O)c1cc(O)cc(O)c1 | -3 | 9 | 5 | -3 | i | 1 | 7 | -9
CCN(CC)S(=O)(=O)c1cccc(C(=O)NC(C(=O)Nc2nnc(C)s2)C(C)C)c1 (configuration not stated) | -7 | / | -6 | 4 | i | -3 | -1 | 12
COc1ccc(-c2cc(CNc3nc4cc(-c5ccccc5C)sc4c(=O)n3C)on2)cc1 | / | -100 | -18 | / | / | 1 | 1 | /
CSc1ncccc1C(=O)NCCc1ccc(S(N)(=O)=O)cc1 | -9 | 17 | 2 | 9 | i | -2 | 5 | -2
O=C(N/N=C/c1cccs1)c1ccc2c(c1)OCO2 | 25 | -24 | / | -37 | i | -1 | -1 | -9
COc1ccc(CCNC2=C(Cl)C(=O)N(Cc3ccccc3)C2=O)cc1OC | 7 | 24 | -3 | 3 | i | -1 | -12 | -10
CCOc1ccc(NC(=O)CN(C)C(=O)Cc2c(C)nc3ccccc3c2C)cc1OCC | -8 | / | -17 | 20 | i | 2 | -6 | 10
CCCC#Cc1ccc2c(c1)O[C@H](CN(C)S(=O)(=O)c1cccc(OC)c1)[C@H](C)CN([C@H](C)CO)S2(=O)=O | / | 38&42[16.7 µM] | -12&-14 | / | / | -11 | -7 | /
